Screens (PubChem BioAssay)
HPGD block: HPGD (human) dehydrogenase inhibition | Potency, µM, for inactives: at the highest dose activity change, negative = inhibition, most hits filed as inhibitors | purified HPGD, NADH fluorescence kinetic, PGE2 substrate | actives 4.3% (n = 150,000); active = well fitted inhibition curve with a large enough effect (not every such curve was filed as active); inconclusive = small, poorly fitted or top-dose-only effect, or another doubt; inactive = no such curve, though single readings can be large or run the other way;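 further: top concentration of the series not given in the record; plate controls included wells without enzyme; inactives centre near -10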
Target sequence (P15428 whole entry, looked up): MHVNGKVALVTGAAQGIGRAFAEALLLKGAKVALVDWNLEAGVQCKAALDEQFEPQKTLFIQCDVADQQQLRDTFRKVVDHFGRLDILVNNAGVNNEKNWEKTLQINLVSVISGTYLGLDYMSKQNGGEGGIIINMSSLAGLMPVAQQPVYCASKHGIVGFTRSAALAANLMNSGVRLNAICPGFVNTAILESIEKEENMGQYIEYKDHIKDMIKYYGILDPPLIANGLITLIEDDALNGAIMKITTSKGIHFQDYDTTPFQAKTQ
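NADH formation kinetics: reaction with 30 uM PGE2 and 1 mM NAD+ (final), 20 nM enzyme, Tris-HCl pH 8 with Tween 20, after 15 min compound preincubation at room temperature. Fluorescence change, last versus first of five reads.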
* = called active by the depositor; ? = inconclusive; & = joins results of further samples. On the % scale 0 is the no-effect control and ±100 the full control effect; potency means the concentration at half of the fitted maximal effect. Some of the compounds tested; count on the stated rates, not on these rows.

SMILES	HPGD block
COc1ccc(C)cc1S(=O)(=O)N(CC(=O)Nc1cccc([N+](=O)[O-])c1)c1ccc(C)c(C)c1	-8%
NS(=O)(=O)c1ccc(N=C2C(=O)Nc3ccccc32)cc1	-6%
CCOC(=O)c1cnn(-c2cc(C)nc3c(-c4ccccc4)cnn23)c1N	-24%
O=C(CSc1ccccn1)Nc1cccc(NC(=O)CSc2ccccn2)n1	-10%
O=[N+]([O-])c1cccc(C(=Nc2ccccc2)NO)c1	-13%
Cc1occc1C(=O)Nc1ccc(S(=O)(=O)N2CCN(C)CC2)cc1	-4%
O=S(=O)(c1cccc(C(F)(F)F)c1)N1CCN(c2ccccc2)CC1	-6%
CC(C)CC1(C)NC(=O)NC1=O (stereo unspecified)	-9%
COc1ccc(/C=c2/sc3nc(-c4ccccc4)c(-c4ccccc4)n3c2=O)cc1	-19%
Cc1ccc(C(=O)/C=C/c2ccc(-c3ccc(C)cc3)o2)cc1	7.1µM*
CC1CCN(C(=O)CSc2nc3c(cnn3-c3ccccc3)c(=O)[nH]2)CC1	?
OCCc1ccc(-c2ccc(Cl)cc2)o1	3%
COc1ccc(S(=O)(=O)Cc2ccc(C(=O)NCc3ccccn3)o2)cc1	-13%
C/C(=N\NC(=O)Cn1c(C)nc2ccccc21)c1cccs1	-4%
O=C(CCC(=O)c1ccccc1)Nc1cccnc1	-7%
O=C(NNC(=O)c1ccc([N+](=O)[O-])o1)c1ccccc1	-13%
Cc1cc(C)c2nc(N3CCCN(C(=O)c4ccco4)CC3)c(C#N)cc2c1	?
COc1ccc(Cl)cc1C(=O)Nn1c(C)nc2ccccc2c1=O	-11%
Cc1onc(-c2ccccc2Cl)c1C(=O)NCCCN1CCOCC1	-9%
CCc1cccc2nc3c(c([Si](CC)(CC)CC)c12)Cn1c-3cccc1=O	?
Cc1cc(N/C=C\C(=O)c2ccc(Cl)c(Cl)c2)no1	1%
CC[C@@H](Nc1ncnc2nc[nH]c12)C(=O)O	1%
O=S(=O)(c1ccccc1)c1cnn(-c2ccccc2)c1-c1ccc(F)cc1	-4%
Cc1cc(C(C)(C)C)oc1C(=O)N(CC(=O)NC1CCCC1)c1c(C)cccc1C	-19%
Cc1ccccc1S(=O)(=O)Oc1ccccc1C(=O)Oc1ccccc1	-9%

Filtered by structure, the compounds so far with nitrogen in an aromatic ring
SMILES	HPGD block
CCOC(=O)c1cnn(-c2cc(C)nc3c(-c4ccccc4)cnn23)c1N	-24%
O=C(CSc1ccccn1)Nc1cccc(NC(=O)CSc2ccccn2)n1	-10%
COc1ccc(/C=c2/sc3nc(-c4ccccc4)c(-c4ccccc4)n3c2=O)cc1	-19%
CC1CCN(C(=O)CSc2nc3c(cnn3-c3ccccc3)c(=O)[nH]2)CC1	?
COc1ccc(S(=O)(=O)Cc2ccc(C(=O)NCc3ccccn3)o2)cc1	-13%
C/C(=N\NC(=O)Cn1c(C)nc2ccccc21)c1cccs1	-4%
O=C(CCC(=O)c1ccccc1)Nc1cccnc1	-7%
Cc1cc(C)c2nc(N3CCCN(C(=O)c4ccco4)CC3)c(C#N)cc2c1	?
COc1ccc(Cl)cc1C(=O)Nn1c(C)nc2ccccc2c1=O	-11%
Cc1onc(-c2ccccc2Cl)c1C(=O)NCCCN1CCOCC1	-9%
CCc1cccc2nc3c(c([Si](CC)(CC)CC)c12)Cn1c-3cccc1=O	?
Cc1cc(N/C=C\C(=O)c2ccc(Cl)c(Cl)c2)no1	1%
CC[C@@H](Nc1ncnc2nc[nH]c12)C(=O)O	1%
O=S(=O)(c1ccccc1)c1cnn(-c2ccccc2)c1-c1ccc(F)cc1	-4%

Continuation:
SMILES	HPGD block
Cc1cc(C(C)(C)C)oc1C(=O)N(CC(=O)NC1CCCC1)Cc1ccccc1Cl	-20%
Cc1ccc(S(=O)(=O)Nc2ccccc2F)cc1C(=O)NCCCN1CCCC1=O	-5%
CC1CN(C(=O)COC(=O)c2ccc(N)c([N+](=O)[O-])c2)CC(C)O1 (stereo unspecified)	28µM*
Cc1ccc(C2CC(=O)c3cnc(N4CC(C)CC(C)C4)nc3C2)cc1 (stereo unspecified)	-11%
CCC(C(=O)O/N=C(\N)c1cccc(C)c1)c1ccccc1 (stereo unspecified)	-19%
COc1cccc(C(C(=O)NC(C)(C)C)N(C(=O)CCC(=O)Nc2cc(C)on2)C(C)C)c1OC (stereo unspecified)	-13%
CCCOC(=O)C1=C(C)NC2=C(C(=O)CC(C)(C)C2)C1c1cccnc1 (stereo unspecified)	?
N#CC(Nc1ccccc1)c1ccccc1OCc1ccccc1 (stereo unspecified)	-15%
CC(C)C(c1nnnn1Cc1ccc2c(c1)OCO2)N1CCN(C)CC1 (stereo unspecified)	-10%
Cc1nc(NC(=O)c2ccccc2[N+](=O)[O-])sc1C(=O)N(C)C	22µM*
Cc1cc(/C([O-])=C(/C(=S)Nc2ccccc2)[n+]2ccccc2)c(C)n1-c1ccccc1	-9%
COc1ccc(N2CCN(C(=O)c3ccc(C)cc3Cl)CC2)cc1	-10%
O=C1C(=O)N(Cc2ccc(Cl)c(Cl)c2)c2ccccc21	-27%
Nc1ccc(Oc2ccc3nc(-c4ccccc4)c(-c4ccccc4)nc3c2)cc1	-11%
Cc1ccc(C)c(N2CCN(C(=O)C3CCN(c4nnc(N5CCCC5=O)s4)CC3)CC2)c1	-20%
CCNC(=O)/C(=C/c1ccc2c(c1)OCO2)NC(=O)c1ccc(Br)cc1	?
CCCc1cc(C(=O)NCCc2ccccc2)no1	-13%
CC(C)Oc1cccc(-c2nnc(SCC(=O)Nc3ccc4c(c3)OCCO4)n2N)c1	-12%
COc1ccc(NC(=O)Cn2cccc2)cc1Cl	-26%
O=[N+]([O-])c1ccccc1Oc1ccccc1Cl	32µM*
CCOc1nc(NC(=O)NS(=O)(=O)Oc2ccccc2Cl)nc(-c2ccccc2)n1	-8%
COC(=O)C(C(=O)N1CCN(C)CC1)C1CCCCCC1 (stereo unspecified)	-12%
CC[C@H]1CC[C@H]2[C@@H]3CC=C4C[C@H](OC(C)=O)[C@@H](N)C[C@@]4(C)[C@H]3CC[C@@]12C	-6%
Cc1cc(NC(=O)Cc2ccccc2)no1	-15%
O=C(c1ccc(F)cc1)N(NC(=O)C(O)(c1ccccc1)c1ccccc1)c1ccccc1	-6%

(further entries)
SMILES	HPGD block
O=S(=O)(c1cccs1)N1CCN(c2ccccn2)CC1	-27%
O=C(CN1C(=O)CSC1=O)Nc1ccc(N2CCOCC2)cc1	-2%
CCOC(=O)c1c(N)sn(-c2ccccc2C)c1=S	11µM*
CN(c1ccc(C(=O)NCC2CCCO2)cc1)S(C)(=O)=O (stereo unspecified)	-27%
Cc1cc(C(=O)Nc2ncn[nH]2)ccc1[N+](=O)[O-]	-5%
Cn1c(C(=O)OC(C(=O)NC2CCCCC2)c2ccccn2)cc2sccc21 (stereo unspecified)	-26%
CC(=O)c1ccc(NC(=O)CO/N=C(\C)c2cccs2)cc1	-16%
O=C(C1CCCCC1)N1CC(=O)N2CCc3ccccc3[C@@H]2C1	-9%
Nc1nc(-c2ccccc2)c(-c2ccccc2)s1	-29%
Cc1ccc(S(=O)(=O)NC(C)(C)CSc2nnc(N)s2)cc1	-3%
COc1cccc(OC)c1C(=O)NC1C(=O)N2C1SC(C)(C)C2C(=O)O (stereo unspecified)	-8%
O=C(NNS(=O)(=O)c1ccccc1)c1cccs1	-5%
Cn1c(-c2cccc(Br)c2)cnc1NCc1cccnc1	-25%
O=C(Nc1cccc(F)c1)c1ccc(S(=O)(=O)N2CCCC2)cc1	-6%
CCOC(=O)CS(=O)(=O)c1nc(-c2ccc(F)cc2)cc(C(F)(F)F)n1	?
Cc1ccccc1OCCSc1nnc(-c2cccnc2)n1N	-12%
CCOC(=O)c1c(C)[nH]c(C(=O)COC(=O)C23CC4CC(CC(Cl)(C4)C2)C3)c1C	-14%
CCC(C)c1ccc(OCC(=O)Nc2ccc3[nH]c(=O)[nH]c3c2)cc1 (stereo unspecified)	-11%
CCCCNC(=O)COC(=O)CCC(=O)c1ccc(F)cc1	-4%
O=C(Cc1ccc(Cl)cc1)Nc1cccc(S(=O)(=O)Nc2ccccc2F)c1	-6%
CC#CCCCC(=O)Nc1cc(OC)nc(OC)n1	-9%
O=C(c1ccc(F)cc1F)N(Cc1ccccn1)Cc1ccco1	-11%
O=C1SC(c2ccccc2)=N/C1=C/c1ccco1	-7%
COc1cc(C(=O)Nc2sc(C(=O)N3CCOCC3)c(C)c2C#N)cc(OC)c1OC	-7%
CCOc1cc(-c2c(C)c(C)nc(N)c2C#N)ccc1O	-11%

The results go on.
SMILES	HPGD block
CC(C)OC(=O)CSc1nc(N)c(C#N)c(-c2ccco2)c1C#N	?
O=C(CN(C1CCCCC1)S(=O)(=O)c1ccc(Cl)cc1)NCc1cccnc1	-4%
CCOc1ccc2[nH]cc(C(=O)O)c(=O)c2c1	-11%
CN(C)Cc1ccccc1-c1cncnc1NCc1cccs1	-14%
O=[N+]([O-])c1ccc(NC(=S)N2CCN(c3ccc(F)cc3)CC2)cc1	-15%
O=S(=O)(c1ccccc1)N1CCCC1c1nc2ccccc2s1 (stereo unspecified)	-4%
COC(=O)[C@@H]1C[C@H]1[C@@H](NC(=O)c1ccccc1)c1ccccc1	-6%&-9%
CC(C)CC(=O)Nc1ccccc1N1CCOCC1	-10%
O=C(COC(=O)Cc1ccccc1[N+](=O)[O-])NCc1ccc(F)cc1	-11%
CCC(c1nnnn1Cc1ccc2c(c1)OCO2)N1CCN(c2ccccc2)CC1 (stereo unspecified)	0%
O=C(Nc1ccc2nc(-c3ccco3)[nH]c2c1)c1ccco1	-26%
COC(=O)c1ccc(Cn2cc(Cl)cn2)cc1	-11%
COc1ccc(S(=O)(=O)N2CCCN(CC(=O)Nc3ccc(OC)c(Cl)c3)CC2)cc1	-16%
COc1ccc(-n2ncc3c(N4CCN(c5cc(C)ccc5C)CC4)ncnc32)cc1	?
Cc1cccc2sc(N(CCN(C)C)C(=O)/C=C/c3cccs3)nc12	10%
COc1ccccc1NC(=S)NNC(=S)Nc1ccc(OC(F)F)cc1	-19%
O=C(CCN1CCc2ccccc2C1)Nc1ccccc1	-5%
CC(N)C(O)c1cccc(O)c1 (stereo unspecified)	-11%
CCOC(=O)c1ccc(NC(=O)CCc2ccc(C)o2)cc1	-19%
CCn1c(/C=N/n2cnnc2)nc2ccccc21	?
Clc1cccc(-c2cc3nc4c(c(NCc5ccco5)n3n2)CCCC4)c1	?
O=C(CSc1ncccn1)c1ccccc1Br	?
COc1ccc(Cl)cc1C(=O)Nc1ccc(S(=O)(=O)N2CCCC2)cc1	-22%
CCOC(=O)c1c(C)c(C)n(Cc2cccc(OC)c2OC)c1C	-7%
Cc1ccc2cc(C(c3nnnn3C3CCCC3)N(Cc3cccnc3)Cc3ccco3)c(=O)[nH]c2c1 (stereo unspecified)	-7%

Next entries
SMILES	HPGD block
CCOC(=O)C1=C(C)NC(=O)CC1c1cc2c(cc1Br)OCO2 (stereo unspecified)	-3%
Cn1c(SCC(=O)c2ccc(F)cc2)nc2cccnc21	-12%
CCCC(C)C(=O)Nc1ccc(Cl)cc1Cl (stereo unspecified)	-5%
COc1ccc(OC2C(=O)N(c3ccc(F)cc3)C2c2ccc(OC)c(OC)c2)cc1 (stereo unspecified)	-3%
COc1ccc(S(=O)(=O)Cc2ccc(C(=O)NCc3cccnc3)o2)cc1	-17%
Fc1cccc(CSc2ccc(-c3ccc4c(c3)OCO4)nn2)c1	-8%
COC(=O)c1cc2occc2n1Cc1nc(-c2ccccc2C)oc1C	-7%
CC(=O)N1CCC[C@@]2(CCN(C(=O)Nc3cccc(C#N)c3)C2)C1	-1%
O=C(O)/C(=C\c1ccccc1)c1ccccc1	-13%
O=C(NC1(C(F)(F)F)C(=O)Nc2c1c(=O)[nH]c(=O)n2Cc1ccccc1)c1ccco1 (stereo unspecified)	1%
Cc1ccccc1C(=O)Nc1ccc(S(=O)(=O)N2CCN(C)CC2)cc1	-9%
Nc1nc2n(n1)C(c1ccc(Cl)cc1)CC(c1ccc(F)cc1)N2 (stereo unspecified)	-7%
Cc1cc(NC(=O)CSc2nc(C(C)C)nc3c2c(=O)n(C)c(=O)n3C)no1	1%
Oc1ccc(-c2nnc(-c3ccc(O)cc3)nn2)cc1	-7%
O=C(O)C(=O)Cc1c[nH]c2ccccc12	?
C/C(CC(=O)Nc1ccccn1)=N\NC(=O)C(=O)Nc1cccc(C)c1	-9%
COc1ccc(/C=N/N=C2\SC(CC(=O)O)C(=O)N2c2ccccc2)c(OC)c1 (stereo unspecified)	-18%
O=C1N=C(N2CCOCC2)S/C1=C/c1ccc(-c2ccccc2Cl)o1	-18%
FC(F)(F)c1cnc2c(-c3ccc(Cl)cc3Cl)noc2c1	-21%
Cc1ccn(C(=O)c2cc3ccccc3oc2=O)n1	-17%
Cc1ccc(SCCNC(=S)Nc2cc(C)cc(C)c2)cc1	-15%
CCC(=O)Nc1ccc(Cl)c(NC(=S)NC(=O)c2cc3ccccc3o2)c1	-18%
COc1ccccc1NC(=O)CCSCCC(=O)Nc1ccccc1OC	-16%
CCOC(=O)C1=C(CC)OC(N)=C(C#N)C1c1ccc(OC)c(C)c1OC (stereo unspecified)	-14%
CCc1c(C(=O)Nc2ncn(Cc3cccc(C)c3)n2)csc1C	-14%

(listing goes on)
SMILES	HPGD block
COc1ccccc1C(c1nnnn1Cc1ccccc1)N1CCN(c2nc3ccccc3s2)CC1 (stereo unspecified)	-6%
Cc1cc(C)nc(-n2nc(C)cc2NC(=O)c2ccc3c(c2)OCO3)n1	-12%
CCCC(C)C(=O)Nc1ccc(Cl)cn1 (stereo unspecified)	-16%
O=C(COc1ccc(F)cc1)N1CCC(c2ccccc2)C1 (stereo unspecified)	-3%
CC1(C)CC(NC(=O)COc2ccc3ccccc3c2)CC(C)(C)N1	-1%
C=Cn1nc(C)c2ccccc2c1=O	-8%
O=C(CSc1ncn[nH]1)c1ccc2c(c1)OCCO2	-12%
Cc1ccc(OCC(=O)n2cnnc2N)c(C)c1	-9%
COc1cc2nc(COc3ccccc3[N+](=O)[O-])oc(=O)c2cc1OC	-2%
